# Rango release inh: inhibitors of RanGTP-induced Rango-importin beta complex dissociation; Potency, µM (titrated, usually from 46.1 µM), for the others: at the highest dose activity change, negative = inhibition; Biochemical FRET Rango-importin beta, RanGTP-induced dissociation; actives 0.071% (n = 340,000); O95149+P62826; active means falling FRET ratio curve, often poorly fitted, with flat reads before Ran was added; inconclusive means other falling curves, or compound fluorescence or quenching; inactive means flat or rising ratio curve;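 also: potency is read from the fitted curve at half-maximal effect; % of control where 0% means no effect; nearly all actives have a fitted effect of over 45% in size; -100% = wells without RanGTP and RCC1; the record marks most hits as doubtful in a second field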
#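 Compounds sat 5 min at room temperature with 0.1 uM Rango biosensor plus 0.25 uM importin beta, then FRET pre-read. RanGTP-RCC1 (0.6 uM Ran, 2mM GTP, 0.2 uM RCC1) added for 45 min, and the CFP/YFP post-read measured blocked complex dissociation.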
# GLA inh pH 4.5: alpha-galactosidase A (human) inhibition, pH 4.5. P06280. purified enzyme, 4-MU-alpha-Gal fluorescence, pH 4.5. activity change, negative = inhibition, % at 105 µM. 230,000 tested, under 10 active. AID 1467; inconclusive = small, poorly fitted or top-dose-only inhibition, or a rising curve; inactive = flat fitted curve, though single readings scatter; no compound was filed as active;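 also: 0% = full activity with enzyme and -100% = basal without enzyme; dose as in the result columns while the protocol names 77 µM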
# Target sequence (P06280 whole entry, looked up): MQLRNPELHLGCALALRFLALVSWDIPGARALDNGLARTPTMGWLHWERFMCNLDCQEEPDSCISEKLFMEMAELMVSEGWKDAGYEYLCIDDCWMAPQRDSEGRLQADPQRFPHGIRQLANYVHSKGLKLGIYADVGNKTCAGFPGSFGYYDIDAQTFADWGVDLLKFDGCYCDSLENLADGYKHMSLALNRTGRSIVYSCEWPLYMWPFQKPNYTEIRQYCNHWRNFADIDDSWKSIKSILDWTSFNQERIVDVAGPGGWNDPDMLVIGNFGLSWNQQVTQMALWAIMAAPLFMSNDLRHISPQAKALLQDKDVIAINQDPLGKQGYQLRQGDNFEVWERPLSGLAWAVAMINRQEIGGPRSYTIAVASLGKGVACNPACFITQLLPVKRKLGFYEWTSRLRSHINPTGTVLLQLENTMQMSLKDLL
# Rango complex inh: inhibitors of Rango-importin beta complex formation | Rango CFP/YFP FRET sensor + importin beta, 45 min | actives 0.031% (n = 340,000) | Potency, µM (highest dose often 92.2 µM), without a hit: at the top dose inhibition of complex formation | Q14974 | AID 540263; active = rising FRET ratio curve, often small or poorly fitted; inconclusive = mostly compound fluorescence or quenching in the first reads; inactive = flat curves in all reads;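 also: potency is read from the fitted curve at half-maximal effect; 0% = DMSO wells and 100% = buffer wells lacking importin beta; nearly all actives have a fitted effect of over 15% in size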
#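 Inhibition scored from the CFP 486 nm/YFP 530 nm FRET ratio 45 min after adding 0.125 microM importin beta to 50 nM Rango biosensor preincubated 5 min with compound (room temperature, PBS with DTT, Tween-20, BSA). No-importin wells as positive control.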
# miR-21 reporter: miR-21 reporter, rising signal | Potency, µM (titrated, usually from 38.3 µM), without a hit: at the highest dose reporter change, positive = more light | 340,000 tested, under 10 active | HeLa miR-21 FLuc reporter, luciferase, 48 h; active = well fitted rising curve with a large enough effect; inconclusive = small, poorly fitted or top-dose-only effect; inactive = no such curve, though single readings can be large or run the other way;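 also: % of control where 0% means no effect; miR-21 action dims this reporter so a rising signal means less miR-21 action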
#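 Compounds were titrated across several concentrations (up to approximately 40 uM) and incubated 48 hours with HeLa miR-21-FLuc reporter cells (miR-21 target sequence downstream of FLuc, endogenous miR-21). Readout was firefly luciferase luminescence after lytic detection reagent.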
# The depositor's hits bear a star; ? = inconclusive; · = not tested or not shown; & = joins results of further samples; [ ] = dose if it differs, or a comment. This is a subset, so the mix of outcomes need not match the whole.
SMILES,Rango release inh,GLA inh pH 4.5,Rango complex inh,miR-21 reporter
COc1ccc(C)cc1NC(=O)NC(C)c1ccc2c(c1)OCO2 (stereo unspecified),1.8%,·,-1.3%,-6.7%
COc1ccccc1CNC(=O)c1cc(C)nc2ccccc12,-7.8%,·,0.6%,4.9%
COc1ccc(C(=O)N2C(=O)c3ccc(N)cc3C2=O)cc1,?,0.1,?,-2.9%
CCc1ccc(NC(=O)CSc2nc(NS(=O)(=O)c3ccccc3)cc(=O)[nH]2)cc1,-4.1%,-13.1,0.8%,-0.7%
O=C(c1ccco1)N1CCN(C(=O)C2CCCN(S(=O)(=O)c3cccc4nsnc34)C2)CC1 (stereo unspecified),-4.3%,-6.0,?,-1.3%
COc1ccc(C/C(N)=N/OC(=O)c2cccs2)cc1,1.0%,7.3[21.1 µM],-1.0%,-16.6%
Cc1cc(C)n(S(=O)(=O)c2cc(C(=O)O)c(Cl)cc2Cl)n1,2.1%,1.5,2.3%,-8.5%
O=C(NCC1CCCO1)c1cc2cc(F)ccc2[nH]1 (stereo unspecified),-5.9%,·,-2.2%,-23.2%
O=C(N/C(=C/C=C/c1ccccc1)C(=O)N1CCOCC1)c1ccccc1Cl,1.3%,1.9,1.3%,0.1%
CCC(CC)=NNC(=O)c1ccccc1OCc1ccc(F)cc1,-9.8%,-3.0,-1.2%,-21.6%
CC(C)CC(NC(=O)C1CCC(C)CC1)C(=O)Nc1cccnc1 (stereo unspecified),-13.4%,-10.1,0.3%,-3.4%
O=C1CCc2cc(S(=O)(=O)Nc3ccc(C(F)(F)F)cc3)cc3c2N1CC3,-2.9%,·,-1.7%,·

# Ordered by number of heavy atoms (low to high): some entries from above.
SMILES,Rango release inh,GLA inh pH 4.5,Rango complex inh,miR-21 reporter
COc1ccccc1CNC(=O)c1cc(C)nc2ccccc12,-7.8%,·,0.6%,4.9%
CC(C)CC(NC(=O)C1CCC(C)CC1)C(=O)Nc1cccnc1 (stereo unspecified),-13.4%,-10.1,0.3%,-3.4%
O=C1CCc2cc(S(=O)(=O)Nc3ccc(C(F)(F)F)cc3)cc3c2N1CC3,-2.9%,·,-1.7%,·

# Following part.
SMILES,Rango release inh,GLA inh pH 4.5,Rango complex inh,miR-21 reporter
O=C(NC(=S)Nc1cccc([N+](=O)[O-])c1)C1CCCCC1,5.3%,·,-1.8%,-9.4%
Cn1c(=O)c2c(nc(CN3CCc4ccccc4C3)n2CC(=O)c2ccccc2)n(C)c1=O,-10.2%,·,?,·
O=C(Nc1cccc(Cl)c1)c1cc(-c2ccco2)on1,21.9%,·,1.4%,-7.7%
Cc1cccn2c(=O)c(C(=O)NCCCN3CC(C)CC(C)C3)c(O)nc12 (stereo unspecified),-20.1%,·,?,·
COc1ccc(C(=O)N2CCCC(Nc3ccc(C)c(C)c3)C2)cc1 (stereo unspecified),19.3%,·,-0.1%,-0.4%
CC(=O)Nc1ccc(S(=O)(=O)N(C)Cc2cnn(C)c2)cc1,-2.7%,·,0.2%,2.3%
O=C(NC1CCCCC1)N1CCCC(c2nc3ccccc3[nH]2)C1 (stereo unspecified),-2.2%,0.9,-1.1%,-1.7%
CC(=O)Nc1nc2c(c3c1c(=O)oc1ccccc13)CCCCC2,·,-6.0,·,0.2%
COc1cc2[nH]ccc(=O)c2cc1OC,-5.5%,-0.4,-0.1%,0.0%
COc1cccc(CN2CCN(Cc3ccc(O)cc3)CC2CCO)c1 (stereo unspecified),-11.3%,2.1,-0.4%,0.3%
COc1ccccc1C(=O)n1nc(-c2ccco2)nc1N,1.7%,-0.1,3.6%,-0.9%
O=C(NCCc1ccccc1)c1ccc(-c2ccccc2Cl)o1,2.0%,4.7,4.6%,-41.8%
Cc1ccc(Cn2ncc3c(N4CCCC4)ncnc32)cc1,4.8%,3.7,0.4%,-17.1%
COc1ccc(NC(=O)COC(=O)c2cc(=O)c3ccccc3o2)cc1OC,1.7%,·,?,·
C/C(N)=C(/C#N)C(=O)CSc1n[nH]c(-c2cccs2)n1,7.3%,5.7,5.2%,-28.4%
Cc1cc(C(C#N)c2ccc(Cl)cc2)c(Cl)cc1NC(=O)c1cc(I)cc(I)c1O (stereo unspecified),-8.8%,·,6.6%,·
COc1ccc(NS(=O)(=O)c2cc(NC(=O)c3ccc(=O)[nH]n3)ccc2N2CCOCC2)cc1,-5.2%,·,-1.9%,·
O=C1c2cccnc2C(=O)N1Cc1ccc(Cl)cc1,1.2%,-2.2,1.4%,-4.1%
COc1ccc(CCNC(=O)CSc2nnc(-c3cccc(F)c3)o2)cc1OC,6.1%,3.0,-0.6%,-4.5%
CN(Cc1ccccc1)S(=O)(=O)c1nnc(NC(=O)c2ccccc2)s1,-13.1%,·,0.6%,-1.6%&-22.3%
COc1ccccc1NC(=O)Cn1cc(C(=O)c2ccco2)c2ccccc21,-5.6%,-6.2,4.3%,3.4%
Cc1nnc(SCC(=O)NCCN2C(=O)CSC2=O)s1,1.5%,-4.4,1.2%,-2.6%
COc1ccc(Nc2nc(C)cc(C)c2C(N)=O)cc1OC,-1.8%,·,0.0%,-4.6%
COc1ccc(CNC(=O)C2CCNCC2)cc1,20.6%,-3.2,8.7%,-4.1%
O=C(CCN1C(=O)C2CCCCC2C1=O)Nc1cc([N+](=O)[O-])ccc1Cl (stereo unspecified),0.0%,·,-1.8%,·
c1ccc(Cn2nnc3c(N4CCc5ccccc5C4)ncnc32)cc1,-2.4%,1.4,-0.6%,0.5%
COc1ccc(OC)c(/C=C/C(=O)OCC(=O)NCc2ccco2)c1,-18.5%,·,?,·
CCOC(=O)c1c(C)[nH]c(C)c1-c1ccccc1OC,-12.3%,-1.0,8.4%,0.0%
COc1ccc(/C=N/NC(=O)CCc2c(C)n[nH]c2C)cc1O,-7.6%,-10.7,-4.7%,-1.9%
COCc1ccccc1C1=CC(=O)C[C@H](c2ccc(OC)cc2)C1,-2.8%,·,-1.2%,·
Cn1cccc1Cc1nnc(SCC(=O)N2CCN(c3ccccc3)CC2)n1-c1ccc(F)cc1,-6.9%,-2.8,-6.0%,-7.0%
CC1(C)CC(N(Cc2ccccc2)C(=O)Cc2ccccc2)CCO1 (stereo unspecified),50.4%,-4.3,-0.2%,0.1%
Clc1ccc(OCCn2cnc(Cl)c2Cl)cc1,4.0%,-3.2,-0.1%,-12.2%
COC(C[C@H]1O[C@H]1[C@@H](O)[C@H](C)OCc1ccccc1)OC,28.7%,-0.9,-1.9%,1.4%
COc1ccccc1C(CC(=O)Nc1nccs1)c1ccco1 (stereo unspecified),-7.8%,1.4,-2.3%,-6.4%
COc1cccc(NC(=O)CSc2nc3ccccc3c(=O)n2CCCC(=O)NCC2CCCO2)c1 (stereo unspecified),8.6%,·,-2.2%,0.5%
C/C(CC(=O)N1CCN(C=O)CC1)=N\NC(=O)c1ccc(Cl)cc1,1.8%,16.8,2.2%,-7.8%
C/C=C(/C)C(=O)Nc1cccc(C2=NOC3(C2)C[C@H](C(N)=O)N(C(=O)Cc2ccc([N+](=O)[O-])cc2)C3)c1 (stereo partly specified),-9.4%,0.0,-0.9%,-2.1%
O=C(OCCCc1cc2ccccc2c(=O)o1)c1ccc(C(F)(F)F)cc1,5.1%,·,1.1%,·
Cn1ncc(Br)c1C(=O)N1CCN(C(=O)c2ccco2)CC1,0.6%,-4.4,-6.6%,0.0%
Cc1ccc(OCC(=O)Nc2ccc3c(c2)CCC3)c([N+](=O)[O-])n1,-0.1%,2.9,-2.6%,-51.0%
O=C(O)CSCC(=O)N(c1ccccc1)c1ccccc1,-16.8%,·,0.5%,-0.8%
COc1ccc(-c2csc(NC(=O)CN3C(=O)C4CCCCC4C3=O)n2)c(OC)c1 (stereo unspecified),-2.9%,·,-2.7%,·
Cc1ccc(NC(=O)CSc2nnc(-c3cc(C)[nH]n3)n2N)c(C)c1,-12.2%,·,2.3%,0.7%
O=C(CN1C(=O)COc2ccccc21)N1CCN(C2CCCCC2)CC1,3.0%,·,-3.6%,5.3%
O=[N+]([O-])c1ccc(-c2cn(-c3ccccc3F)c(=S)[nH]2)cc1,10.1%,1.1,2.5%,-55.8%
CCn1ccnc1CN1CCC(n2nccc2NC(=O)CCc2ccccc2)CC1,5.1%,·,-2.1%,-3.7%
Cc1ccc(S(=O)(=O)N/N=C\c2cc3c(cc2[N+](=O)[O-])OCO3)cc1,8.5%,7.2,0.0%,-1.7%

# Next section (2 carried over from the part before).
SMILES,Rango release inh,GLA inh pH 4.5,Rango complex inh,miR-21 reporter
CCn1ccnc1CN1CCC(n2nccc2NC(=O)CCc2ccccc2)CC1,5.1%,·,-2.1%,-3.7%
Cc1ccc(S(=O)(=O)N/N=C\c2cc3c(cc2[N+](=O)[O-])OCO3)cc1,8.5%,7.2,0.0%,-1.7%
CC(=O)NC1=NC(=O)/C(=C/N2CCOCC2)S1,4.9%,-5.6,-0.9%,-5.8%
COc1ccc(C2N(c3ccc4c(c3)OCCO4)C(=O)C2(F)F)cc1OC (stereo unspecified),1.3%,-1.2,-3.6%,-4.5%
O=C(CSc1ccc2nnc(-c3ccccc3)n2n1)N1CCCc2ccccc21,-9.0%,-0.7,3.7%,-0.2%
CCOC(=O)[C@H]1[C@H]2COc3ccc(OC)cc3[C@@H]2N2C(=O)c3cc(F)c(F)cc3NC(=O)[C@@]12C,0.6%,·,2.9%,·
CN1CCN(C(=O)c2cnn3c2NC(c2ccccc2)CC3C(F)(F)F)CC1 (stereo unspecified),-12.5%,-1.0,6.5%,-0.5%
CCSc1nc2ccccc2n1CC(N)=O,-3.9%,-5.6,0.5%,-5.1%
Cc1occc1C(=O)NCc1ccccc1,2.1%,1.8,5.2%,-7.9%
COc1cccc(CN2CC(C(=O)NC3CCC(O)CC3)CCC2=O)c1 (stereo unspecified),1.0%,·,0.0%,0.6%
CC(=O)c1cccc(NC(=O)N2CCCC2C(=O)NCc2ccc(C)cc2)c1 (stereo unspecified),-9.9%,6.5,1.3%,-3.8%
Cc1ccc(-c2nnc(SCC(=O)Nc3ccc4c(c3)OCCO4)n2N)cc1,-6.2%,2.7,-3.8%,-0.2%
CN1CCC(N(C)CC(O)c2ccccc2)CC1 (stereo unspecified),13.2%,1.6,-3.4%,-1.6%
C/C(CC(=O)NC1CCCCC1)=N\NC(=O)COc1ccc(C)cc1Br,7.4%,-3.1,-2.1%,-0.7%
COc1ccccc1N1CCN(C(=O)c2ccco2)CC1,9.0%,·,0.7%,-12.7%
Cc1cccc(C(=O)NC2CCN(S(=O)(=O)c3ccc(F)cc3)CC2)c1,-8.8%,·,-1.1%,-1.2%
N#CCc1c(C#N)c(N)nc(N2CCN(c3ccc(F)cc3)CC2)c1C#N,0.8%,-20.3,-0.1%,-16.6%
O=C(Nc1cccnc1)c1cnc2ccccc2n1,-6.9%,-9.2,1.5%,-32.4%
COc1ccc2c(c1)SCC/C2=C\CN1C(=O)CCC1=O,-2.3%,-5.5,4.7%,-11.1%
O=C(COC(=O)c1ccccc1NCCO)NCCC1=CCCCC1,0.1%,·,-1.2%,·
CCOC(=O)c1c(C)[nH]c(C(=O)CSc2nnc(C3CC3)n2N)c1C,3.7%,2.0,?,-15.6%
CCOc1ccc(CCNC(=O)CN2C(=O)NC3(CCCCCC3)C2=O)cc1OCC,-1.8%,·,0.0%,·
O=c1cc(-c2ccccc2Cl)oc2cccc(O)c12,1.7%,-6.5&12.8,-1.9%,-3.8%
CCN1CCN(S(=O)(=O)c2ccc(OC)c(Br)c2)CC1,-1.4%,-0.5,2.6%,-4.7%
Cc1cc(OCc2cc(C(=O)N(Cc3nccn3C)C(C)C)no2)cc(C)c1Cl,3.0%,·,-3.4%,-4.8%
O=C(NC1CCCCCC1)c1cc2ccccc2oc1=O,0.5%,·,1.1%,-53.3%
Cc1cccc(NC(=O)Nc2ccc([N+](=O)[O-])cc2)n1,-6.0%,1.0,-2.2%,-19.6%
CCCCNCC1C(Oc2ccc(Cl)cc2)C(=O)N1c1ccccc1C (stereo unspecified),55.0%,-10.5,2.7%,14.5%
O=C(Nc1cccnc1)c1ccc(Br)c(S(=O)(=O)N2CCCC2)c1,15.3%,·,-0.1%,12.5%

# Screening data as filed in PubChem BioAssay.
